Screening data: PubChem BioAssay, several laboratories
ALR inh: human ALR oxidase inhibition via reduced H2O2. hit rate 3.8% among 290,000. P55789. purified ALR, DTT oxidation, H2O2 HRP-luminol luminescence. inhibition, % (no concentration beside the values);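 active means mean and each replicate at 75% or more; inconclusive means only one of the two met; inactive means neither met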;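 further: stock transfer was 7.5 nL into about 7.5 µL; 0% = neutral wells and 100% = wells with inactivated enzyme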
Target sequence (P55789 whole entry, looked up): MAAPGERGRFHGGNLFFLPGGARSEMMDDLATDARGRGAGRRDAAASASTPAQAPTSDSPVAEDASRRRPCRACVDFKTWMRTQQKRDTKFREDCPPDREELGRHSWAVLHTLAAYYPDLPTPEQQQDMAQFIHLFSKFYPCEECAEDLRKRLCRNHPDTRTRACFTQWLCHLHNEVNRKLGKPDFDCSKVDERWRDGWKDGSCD
Beta2AR agonist: human beta-2 adrenergic receptor agonism by FAP; P07550; Am2.2-beta2AR cells, FAP receptor internalization, flow cytometry; reference of the scale not given here; response, % (no concentration beside the values); hit rate 0.43% among 340,000; AID 504454;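 active means response above a set limit, near 3 SD of response in nonfluorescent compounds, cut at about 42% in these data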;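 further: stock transfer was 100 nL into about 11 µL; a reference agonist was the positive control; negative values mostly stem from fluorescent compounds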
Target sequence (P07550 whole entry, looked up): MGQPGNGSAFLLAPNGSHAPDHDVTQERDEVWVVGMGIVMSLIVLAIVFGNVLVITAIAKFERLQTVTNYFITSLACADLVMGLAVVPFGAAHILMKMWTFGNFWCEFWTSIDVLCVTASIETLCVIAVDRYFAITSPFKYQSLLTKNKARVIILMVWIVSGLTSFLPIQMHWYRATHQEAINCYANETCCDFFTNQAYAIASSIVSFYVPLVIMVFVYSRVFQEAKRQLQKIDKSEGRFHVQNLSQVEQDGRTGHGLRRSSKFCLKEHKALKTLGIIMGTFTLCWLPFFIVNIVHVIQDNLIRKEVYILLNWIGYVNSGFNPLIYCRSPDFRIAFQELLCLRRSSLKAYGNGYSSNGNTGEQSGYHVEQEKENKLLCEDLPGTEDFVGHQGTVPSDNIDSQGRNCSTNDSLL
RanGTP-Impb inh: disruptors of Ran-importin-beta complex formation – biochemical, FRET, CFP-Ran, YFP-importin-beta, homogeneous, primary screen. hit rate 1.1% among 300,000. AID 2216. cell-free CFP-Ran/YFP-importin-beta FRET ratio. inhibition, % (no concentration beside the values);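 active means most replicates above 15%; inconclusive means exactly half above 15%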;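 further: 0% = DMSO wells and 100% = Ran loaded with GDP instead of GTP; wells of about 40 µL received 100 nL stock; the first replicate is given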
Calb FLC: affects C. albicans growth with fluconazole. C. albicans CaCi-2 (fluconazole-resistant clinical isolate) + fluconazole, Alamar Blue growth, 48 h. AID 1979. growth inhibition, % (no concentration beside the values). hit rate 0.57% among 300,000;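 active means most replicates above 75%; inconclusive means exactly half above 75%; inactive means most below 75%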;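 further: all wells also contain fluconazole at 8 µg/ml as a sub-toxic cotreatment; 0% = median of DMSO wells and 100% = median of geldanamycin control wells; wells of about 8 µL received 7.5 nL stock; the first replicate is given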
HNF4A DNA FP: change in binding of human HNF4 alpha to DNA. P41235. HNF4a-FITC DNA binding, fluorescence polarization, 1 h. activity change, % at 10 µM. hit rate 0.3% among 360,000; in the data active means activity change above about 30%, passing the limit was not always enough;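 further: controls were the assay level and a saturating level of protein; the project sought stronger binding though the title names inhibitors; some compounds called inactive have numbers as strong as hits; positive values seem to mean higher polarization but the record does not say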
Target sequence (P41235 whole entry, looked up): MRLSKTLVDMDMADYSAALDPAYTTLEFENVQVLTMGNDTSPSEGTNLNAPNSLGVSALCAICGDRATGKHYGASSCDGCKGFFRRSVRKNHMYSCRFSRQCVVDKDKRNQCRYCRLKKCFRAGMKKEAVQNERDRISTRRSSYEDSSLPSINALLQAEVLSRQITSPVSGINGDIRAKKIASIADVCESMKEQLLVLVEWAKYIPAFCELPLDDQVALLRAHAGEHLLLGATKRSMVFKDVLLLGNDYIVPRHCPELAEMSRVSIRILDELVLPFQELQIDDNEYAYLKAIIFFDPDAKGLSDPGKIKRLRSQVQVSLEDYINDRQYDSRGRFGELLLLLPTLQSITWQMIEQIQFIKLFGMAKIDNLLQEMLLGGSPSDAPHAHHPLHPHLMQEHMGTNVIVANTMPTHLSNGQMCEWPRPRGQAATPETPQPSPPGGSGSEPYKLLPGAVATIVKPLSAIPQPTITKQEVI
LANA-H2B inh: blocks KSHV LANA binding to histone H2A/H2B. Q9QR71. AID 2629. hit rate 0.6% among 320,000. inhibition, % (no concentration beside the values). cell-free LANA-H2A/H2B peptide, fluorescence polarization; in the data active means inhibition mostly above about 10%, no sharp cut-off; inactive means mostly below about 6.7%;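 further: stock transfer was 7.5 nL into about 10 µL; 0% = median of vehicle wells and 100% = median of positive control wells; one replicate is shown; the record names a cut of 25% in any replicate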
Vif A3G: HIV-1 Vif–A3G interaction blockers – biochemical, TR-FRET, GST-Vif 1-94, biotin-A3G peptide, dose response retest, primary screen (AID 1117319); inhibition, %; hits with a dose series show IC50 in µM; hit rate 0.57% among 260,000; TR-FRET GST-Vif / biotin-A3G peptide binding; higher % means a stronger effect; test concentration not given here; strong numbers were not always called active;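 active means above the screen mean plus three standard deviations and confirmed in dose response; inconclusive means results disagree or hit not tested in dose response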;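 further: Vif residues 1-94 fused to GST binding biotinylated APOBEC3G peptide 110-148; 0% = full assay without inhibitor and 100% = GST in place of GST-Vif; retest series ran down from 100 µM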
* hit, by the source's call; ? = inconclusive; · = not tested or not shown.

mol,HNF4A DNA FP,Beta2AR agonist,RanGTP-Impb inh,Vif A3G,ALR inh,Calb FLC,LANA-H2B inh
COC(=O)CCC(=O)NC(=S)Nc1cc(Cl)ccc1Cl,0.4,-10,0.0,2%,4,-12,0.5
CC1Cc2ccccc2N1C(=O)C(C)n1cc(C(F)(F)F)cc(Cl)c1=O (stereo not given),-0.8,-7,·,-2%,1,·,-1.1
O=C(NNc1cc(C(F)(F)F)ccc1Cl)c1ccc(=O)[nH]c1,3.1,6,5.0,·,-6,-15,-1.6
COc1ccc(NC(=O)NNC(=O)COc2ccc3cc(Br)ccc3c2)c(OC)c1,-0.7,-1,?,·,-12,-3,2.3
CC(C(=O)NCc1ccccc1)N(Cc1ccccc1Cl)C(=O)c1snc(C(N)=O)c1N (stereo not given),3.0,4,1.5,·,-9,0,2.7
COc1cccc(-c2cc(C(=O)Nc3cc(C)on3)no2)c1,-5.0,-3,9.7,-5%,-3,5,-5.6
Cc1cccc(C)c1NC(=O)/C(=C/c1ccco1)c1ccccc1,3.1,-4,?,1%,-2,-9,-0.3
CCN(CC)S(=O)(=O)N1CCN(S(=O)(=O)N2CCOCC2)CC1,0.6,1,-1.5,·,-8,-9,6.6
CCOc1ccc(S(=O)(=O)NN2Cc3ccccc3C2=N)cc1,-1.0,-2,-1.5,13%,-4,-23,0.6
O=C(CC1C(=O)NCCN1CC(c1ccccc1)c1ccccc1)NCCc1cn[nH]c1 (stereo not given),-1.5,-1,-1.4,10%,-4,-10,0.5
COc1cc(OC)cc(C(=O)NNC(=O)CCNS(=O)(=O)c2ccc(Br)cc2)c1,0.4,-3,·,·,·,·,-3.6
O=C(CCn1c(=O)[nH]c2ccsc2c1=O)NCCc1ccc(Cl)cc1,1.9,-14,5.5,-5%,·,2,-3.5
COc1ccccc1C(=O)Nc1ccc2c(c1)OCCO2,-2.6,-13,0.0,17%,·,-7,0.2
O=Cc1cn(CCC(=O)O)nc1-c1cccc(Br)c1,1.4,-8,·,1%,-4,-6,2.7
Cc1nnc(SCc2ccc3c(c2)OCO3)s1,1.1,10,-1.3,2%,-9,-17,-5.4
CC(C)(C)c1ccc(C(=O)Nc2ccccc2C(=O)NCCN2CCOCC2)cc1,-0.3,-424,-0.3,-1%,2,5,2.5
Cc1[nH]c2ccccc2c1Cc1nnc(SCC(N)=O)o1,0.2,2,?,10%,7,0,-1.7
C/C(=N\NC(=O)CNC(=O)c1ccccc1F)c1ccco1,-2.0,0,-1.6,-1%,-5,-1,1.7
CN(C)S(=O)(=O)c1ccc(NC(=O)COC(=O)C2COc3ccccc3O2)cc1 (stereo not given),0.3,-4,1.7,20%,-1,-30,-2.5
CN(C)S(=O)(=O)c1ccc(N2CCCC2)c(C(=O)N2CCN(S(=O)(=O)c3ccccc3F)CC2)c1,3.0,16,-0.3,-6%,·,12,-4.8
Cc1nn(C)c(C(=O)N/N=C/c2ccc(-c3ccccc3)cc2)c1Cl,1.7,1,-0.9,·,0,-10,-3.9
COc1ccc(NC(=O)CN2CCN(CC#N)CC2)cc1,-1.6,-4,0.3,·,0,4,-1.1
COc1ccc(CCNC2=C(Cl)C(=O)N(Cc3ccccc3)C2=O)cc1OC,-0.7,3,-7.2,-5%,30,14,-4.1
CC(=O)Nc1c2c(nn1-c1cccc(Cl)c1)CS(=O)(=O)C2,-1.4,-4,2.2,-3%,-2,-26,-1.9
CC1(C(=O)O)Cc2ccccc2C(=O)O1 (stereo not given),-1.9,1,5.5,64%,-6,14,2.8

The results go on.
mol,HNF4A DNA FP,Beta2AR agonist,RanGTP-Impb inh,Vif A3G,ALR inh,Calb FLC,LANA-H2B inh
COC(=O)N/N=C/c1cn(Cc2c(Cl)cccc2Cl)c2ccccc12,0.2,9,1.7,28%,-2,9,1.8
COc1cc(NC(=O)CN2C(=O)C(c3ccccc3)=NC2(C)C)cc(OC)c1,-1.7,6,3.8,2%,97*,8,-2.0
O=C(NCc1nnc(SCC(=O)N2CCOCC2)o1)c1c(F)cccc1F,3.3,-3,-4.2,·,-7,2,-0.3
O=C(O)CC(NC(=O)C12CC3CC(CC(C3)C1)C2)c1cc([N+](=O)[O-])ccc1Cl (stereo not given),-4.7,-8,2.4,5%,19,1,-1.5
COc1ccc(S(=O)(=O)Nc2cccc(-c3ccc(N4CCCCCC4)nn3)c2)cc1OC,-0.7,10,0.4,-9%,-5,0,-1.1
Cc1nn(CCOc2ccccc2Cl)c(C)c1[N+](=O)[O-],-0.8,6,-1.5,0%,-6,-4,-2.4
Cc1ccc(NC(=O)N(CCC#N)Cc2ccccc2)cc1,-3.9,-1,6.2,-1%,-6,-4,-2.9
CCCCNC(=O)CS(=O)Cc1nc(-c2cccc(Cl)c2)oc1C (stereo not given),0.6,2,-1.0,20%,100*,-2,3.8
O=C(COC(=O)c1c(F)cccc1F)c1ccc[nH]1,·,·,6.3,-14%,·,-2,0.9
O=C(Nc1nc(-c2ccccc2)cs1)c1ccc2c(=O)n3c(nc2c1)CCCCC3,1.4,18,1.9,·,-1,-14,2.1
CCCc1nnc(NC(=O)CCN2C(=O)c3ccccc3C2=O)s1,2.7,-4,0.6,-5%,-13,40,3.1
O=C1[C@H]2[C@@H](c3ccc(Cl)cc3)N3C(=O)N(c4cccc(Cl)c4)C(=O)[C@@]3(Cc3ccc(Cl)cc3)[C@H]2C(=O)N1C1CCCCC1,-2.2,2,0.6,·,41,6,2.6
Cc1ccc(Nc2c([N+](=O)[O-])ccc3nonc23)cc1C,2.1,-3,-2.9,-7%,-15,5,-6.4
COc1ccc(NC(=O)CSc2nnc(CCC(=O)O)c(=O)n2N)cc1,0.8,-1,3.6,0%,98*,2,-2.1
Cc1nc2c(c(=O)c3ccccc3n2C)c(=O)n1-c1ccccc1,4.2,9,5.9,?,·,-15,-2.5
Cc1ccc(NC(=O)c2ccccc2N2C(=O)C3C4C=CC(C5CC45)C3C2=O)cc1C (stereo not given),5.2,-2,2.2,·,0,4,-2.4
O=C(CCNS(=O)(=O)c1ccc2[nH]c(=O)oc2c1)Nc1cccc(Br)c1,-1.6,9,0.0,-7%,-3,-3,-8.2
COc1cccc(C2CC(c3cccs3)=NN2C(=O)c2ccco2)c1O (stereo not given),-0.4,-15,-1.1,·,36,1,5.2
CC1CC(=O)N(c2ccc(NCc3ccccc3Cl)c([N+](=O)[O-])c2)C1=O (stereo not given),5.7,-2,3.6,12%,-6,2,4.5
Cc1ccc(C(O)c2nc3ccccc3n2C)cc1 (stereo not given),3.6,-6,-2.7,·,4,2,0.2
CC1CCCC(C)N1C(=O)COC(=O)c1cc(-c2cccs2)nn1-c1ccccc1 (stereo not given),-2.4,-1,6.1,5%,·,4,6.0
S=C(NC12CC3CC(CC(C3)C1)C2)N1CCCC1,-1.1,-3,2.1,·,-8,?,5.3
COc1ccccc1NC(=O)c1ccc2c(O)c(S(=O)(=O)c3ccccc3)c(=O)[nH]c2c1,2.4,-3,1.7,3%,-8,-3,-3.6
CCN(CC(=O)NC(C)C)C(=O)C(CCSC)NC(=O)c1cccc(C)c1 (stereo not given),2.3,-16,-3.7,8%,1,?,-5.2
COc1cc(NC(=O)NCC2CCN(Cc3ccccc3Cl)CC2)cc(OC)c1OC,-1.6,-4,1.8,·,-7,-6,0.9

Some of these compounds in order of number of heavy atoms, largest number first:
mol,HNF4A DNA FP,Beta2AR agonist,RanGTP-Impb inh,Vif A3G,ALR inh,Calb FLC,LANA-H2B inh
O=C1[C@H]2[C@@H](c3ccc(Cl)cc3)N3C(=O)N(c4cccc(Cl)c4)C(=O)[C@@]3(Cc3ccc(Cl)cc3)[C@H]2C(=O)N1C1CCCCC1,-2.2,2,0.6,·,41,6,2.6
COc1cc(NC(=O)NCC2CCN(Cc3ccccc3Cl)CC2)cc(OC)c1OC,-1.6,-4,1.8,·,-7,-6,0.9
O=C(Nc1nc(-c2ccccc2)cs1)c1ccc2c(=O)n3c(nc2c1)CCCCC3,1.4,18,1.9,·,-1,-14,2.1

(list continues)
mol,HNF4A DNA FP,Beta2AR agonist,RanGTP-Impb inh,Vif A3G,ALR inh,Calb FLC,LANA-H2B inh
CCO[C@@H]1OC(C(=O)N2CCOCC2)=C[C@H](c2ccc(C(F)(F)F)cc2)[C@H]1CCCO,-0.8,-13,-0.7,-2%,·,-4,1.1
CCCn1c(SCC(=O)N(C)CC(=O)Nc2ccc(C)cc2)n[nH]c1=O,1.1,-1,·,2%,-1,·,-8.2
COc1ccc(S(=O)(=O)Cc2ccc(C(=O)N3CCN(c4ccc(Cl)cc4)CC3)o2)cc1,2.3,-7,5.2,-1%,86*,11,3.5
CCCn1nnc(NC(=O)c2ccc(-c3cccc(Cl)c3)o2)n1,0.3,0,2.4,-1%,18,36,-3.3
COc1ccc(/C=C/C(=O)c2ccccc2)cc1COc1ccccc1F,-2.8,3,7.0,0%,4,-13,2.0
O=C1[C@@H](Oc2ccccc2)[C@@H](c2cccnc2)N1c1ccccc1,1.8,18,·,-4%,·,·,·
COc1ccc(C(=O)Nc2cc(C)on2)cc1,-0.4,0,1.3,16%,-19,-7,6.1
Cn1cc([N+](=O)[O-])c(C(=O)Nc2cc(Oc3cccnc3)cc([N+](=O)[O-])c2)n1,·,·,1.5,14%,-4,7,1.0
COc1cccc(/C(C)=N/Nc2ncc(Cl)cc2Cl)c1,0.7,-11,1.5,-6%,2,-3,9.0
O=c1[nH]c2cc3c(cc2cc1CN(Cc1nnnn1CC1CCCO1)C1CCCC1)OCO3 (stereo not given),-16,4,-31,7%,-58,-4,0.6
CCOc1ccc2nc(SC3CC(=O)N(c4cccc(OC)c4)C3=O)sc2c1 (stereo not given),-4.8,-13,4.2,0%,-12,8,-4.9
O=C(CSc1nc2ccccc2[nH]1)Nc1ccc(F)c(F)c1,0.9,-6,6.5,4%,-5,-10,0.7
Cc1cc(C)c2c(CC(=O)NN(C)C)coc2c1,-2.8,-1,-0.8,-5%,·,5,-2.2
COc1ccccc1C(C)NC(=O)c1cc(=O)[nH]c2ccccc12 (stereo not given),-1.0,9,1.2,6%,0,-6,-5.1
O=C(NCc1ccncc1)c1ccc(N2CCCC2)c([N+](=O)[O-])c1,1.9,-23,-2.4,-2%,-4,-7,-1.6
O=C(COC(=O)c1ccc2ccccc2c1)NCCCc1ccccc1,0.1,3,17*,12%,0,-28,-3.1
Cc1ccc(N(C(=O)c2csnn2)C(C(=O)NC(C)(C)C)c2cccnc2)cc1C (stereo not given),-3.8,-1,2.4,2%,1,8,5.9
CCN(CC)S(=O)(=O)c1cccc(C(=O)c2c(C)cc3ccccn23)c1,0.6,-2,·,-1%,·,-9,·
COC(=O)c1ccccc1-c1cn(C)c2ccccc2c1=O,-0.1,-7,-2.3,-7%,·,-1,0.4
Cc1cc(=O)oc2c3c4c(cc12)OCCN4CCC3,6.1,-14,143*,11%,97*,-1,5.9
CC(C)Cn1nc(NC(=O)C(C)(C)C)c2cc3ccccc3nc21,2.9,10,-1.3,68%,-15,9,9.5
CCOc1ccc2ncc(S(=O)(=O)c3ccccc3)c(N3CCN(c4ccc(OC)cc4)CC3)c2c1,1.8,4,-2.6,8%,-9,6,-2.1
COc1cc(S(=O)(=O)N(CCc2ccccc2)Cc2cccs2)ccc1-n1cnnn1,1.4,1,-3.0,1%,-4,-6,-4.3
CN[C@H]1CCc2cc(OC)c(OC)c(OC)c2-c2ccc(N(C)CC(OC)OC)c(=O)cc21,3.0,24,-2.6,-4%,-33,1,-0.3
COc1ccc(C(=O)Nn2c(SCC(=O)NCc3ccccc3)nc3ccccc3c2=O)cc1,2.9,-2,?,-4%,-3,-12,3.9
CCS(=O)(=O)N1Cc2ccccc2CC1C(=O)OCC(=O)Nc1ccc(C)cc1 (stereo not given),-2.1,3,?,0%,0,-7,0.8
